Compound activity from PubChem BioAssay.
UCH37 inh: blocks the human deubiquitinase UCH37; Q9Y5K5; inhibition, % (concentration not given with the values); 330,000 compounds, 0.33% hits; AID 588478; purified proteasome/UCH37, Ub-AMC cleavage fluorescence;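 active means mean of two replicates above 20%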;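 further: 0% = compound-free wells with enzyme and 100% = wells lacking proteasome; stock transfer was 100 nL into about 20 µL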
Target sequence (Q9Y5K5 whole entry, looked up): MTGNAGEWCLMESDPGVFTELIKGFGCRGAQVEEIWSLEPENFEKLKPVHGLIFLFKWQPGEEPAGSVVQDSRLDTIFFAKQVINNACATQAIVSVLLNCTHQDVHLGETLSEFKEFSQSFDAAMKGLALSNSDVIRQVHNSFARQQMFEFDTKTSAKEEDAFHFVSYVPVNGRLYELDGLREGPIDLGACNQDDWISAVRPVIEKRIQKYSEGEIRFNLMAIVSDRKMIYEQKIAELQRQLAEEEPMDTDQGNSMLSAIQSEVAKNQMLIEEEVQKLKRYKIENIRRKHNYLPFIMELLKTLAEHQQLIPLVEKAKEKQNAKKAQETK
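Assay system: Proteasome-bound UCH37. Buffer or medium: pH 7.4 Tris-HCl (50 mM) with ovalbumin, ATP-MgCl2, DTT. Incubation: 30 min preincubation with enzyme, 25 min cleavage at room temperature. Measured by: fluorescence, ex 355 nm, em 460 nm. Read-out basis: percent inhibition. Control set: wells without proteasome as full block, compound-free enzyme plus substrate as uninhibited.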
Beta2AR agonist: agonists of human beta-2 adrenergic receptor inducing internalization | AID 504454 | P07550 | response, % (concentration not given with the values) | 340,000 compounds, 0.43% hits | Am2.2-beta2AR cells, FAP receptor internalization, flow cytometry; reference of the scale not given here;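 active means response above a set limit, near 3 SD of response in nonfluorescent compounds, cut at about 42% in these data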;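 further: stock transfer was 100 nL into about 11 µL; a reference agonist was the positive control; negative values mostly stem from fluorescent compounds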
Target sequence (P07550 whole entry, looked up): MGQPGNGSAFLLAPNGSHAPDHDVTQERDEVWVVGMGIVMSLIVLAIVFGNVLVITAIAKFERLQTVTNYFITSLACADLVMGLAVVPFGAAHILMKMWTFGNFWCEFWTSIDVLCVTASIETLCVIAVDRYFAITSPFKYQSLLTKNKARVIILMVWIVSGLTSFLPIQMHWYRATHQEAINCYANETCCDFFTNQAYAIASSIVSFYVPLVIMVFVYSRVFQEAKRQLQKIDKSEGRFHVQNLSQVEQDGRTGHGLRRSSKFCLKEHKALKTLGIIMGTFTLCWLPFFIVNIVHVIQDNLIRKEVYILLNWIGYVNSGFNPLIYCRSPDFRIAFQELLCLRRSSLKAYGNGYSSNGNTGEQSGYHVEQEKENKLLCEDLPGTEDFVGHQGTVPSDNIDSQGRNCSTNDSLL
A1 inh: inhibitors of the anti-apoptotic protein A1, read as caspase activation. MEF A1-2A-BIM cells, Caspase-Glo 3/7 luminescence, 3 h; percent of clofoctol response, vehicle zero. caspase activation, % (concentration not given with the values). 330,000 compounds, 0.066% hits. AID 2462;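 active means over half of replicate activation scores above 10%, or exactly half above 10 with the replicate mean above 10; inconclusive means replicate mean below 10 yet half the replicates above 10; inactive means over half of replicates below 10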;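 further: wells of about 30 µL received 50 nL stock; many hits fall short of the cut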
Ecoli growth: blocks Escherichia coli growth; OD600, 23 h; stronger effect = lower value; OD600 absorbance (concentration not given with the values); 330,000 compounds, 0.21% hits; AID 1053175;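 active means OD600 absorbance below the run mean of sample wells minus 3.6 SD, in any replicate, cut at about 0.56 in these data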;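 further: stock transfer was 300 nL into about 60 µL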
LANA-H2A inh: blocks KSHV LANA binding to histone H2A/H2B; cell-free LANA-H2A/H2B peptide, fluorescence polarization; inhibition, % (no concentration beside the values); 320,000 compounds, 0.6% hits; AID 2629; in the data active means inhibition mostly above about 10%, no sharp cut-off; inactive means mostly below about 6.7%;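 further: stock transfer was 7.5 nL into about 10 µL; 0% = median of vehicle wells and 100% = median of positive control wells; one replicate is shown; the record names a cut of 25% in any replicate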
Vif A3G: HIV-1 Vif–A3G interaction blockers – biochemical, TR-FRET, GST-Vif 1-94, biotin-A3G peptide, dose response retest, primary screen (AID 1117319); TR-FRET GST-Vif / biotin-A3G peptide binding; higher % means a stronger effect; test concentration not given here; strong numbers were not always called active; inhibition, %; hits with a dose series show IC50 in µM; 260,000 compounds, 0.57% hits;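 active means above the screen mean plus three standard deviations and confirmed in dose response; inconclusive means results disagree or hit not tested in dose response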;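 further: Vif residues 1-94 fused to GST binding biotinylated APOBEC3G peptide 110-148; 0% = full assay without inhibitor and 100% = GST in place of GST-Vif; retest series ran down from 100 µM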
HNF4A DNA FP: change in binding of human HNF4 alpha to DNA; AID 1224865; P41235; 360,000 compounds, 0.3% hits; HNF4a-FITC DNA binding, fluorescence polarization, 1 h; activity change, % at 10 µM; in the data active means activity change above about 30%, passing the limit was not always enough;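 further: controls were the assay level and a saturating level of protein; the project sought stronger binding though the title names inhibitors; some compounds called inactive have numbers as strong as hits; positive values seem to mean higher polarization but the record does not say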
The depositor's hits bear a star; i = inactive; ? = inconclusive; . = not tested or not shown; & = joins results of further samples. Rows are unselected; any-hit rate near 2.1%.

SMILES	UCH37 inh	Beta2AR agonist	A1 inh	Ecoli growth	LANA-H2A inh	Vif A3G	HNF4A DNA FP
COc1ccc(NC(=O)c2cnc(C)cn2)cc1-n1cnnn1	0.6	-16	-1.2	0.72	-5.1	-7%	2.7
O=[N+]([O-])c1ccc(-c2ncc(-c3ccc(Br)cc3)o2)cc1	-6.2	7	-0.1	0.72	2.4	-14%	0.6
O=C(O)C(c1ccccc1)N1C(=O)/C(=C\c2ccc(-c3ccccc3Cl)o2)SC1=S (stereo not drawn)	38*	7	0.1	0.69	-9.9	10%	62
O=C(Nc1ncc(Cc2ccc(C(F)(F)F)cc2)s1)c1ccc(-c2cccc([N+](=O)[O-])c2)o1	6.9	2	0.3	0.68	-4.7	.	2.8
COc1cccc(-c2nc(CS(=O)(=O)CC(=O)N3CCN(C4CCCCC4)CC3)c(C)o2)c1	1.0	2	-0.2	0.67	-3.1	1%	-4.0
CCc1ccc(Nc2nnc(SCC(=O)Nc3ccc(C(=O)O)cc3)s2)cc1	4.4	3	-8.4	0.67	-11	.	-3.2
CN(CCc1ccccn1)C(=S)Nc1ccc(Cl)c(Cl)c1	1.6	1	0.2	0.64	-2.1	?	2.1
COc1ccc(NC(=O)CN(C)C(=O)COc2ccccc2Cc2ccccc2)cc1	6.5	1	1.0	0.72	-0.3	-8%	2.4
CN(CCN1CCc2ccccc2C1)Cc1nc(Cc2ccccc2F)no1	4.8	-1	.	0.72	.	.	-4.7
O=C(NC(=S)Nc1nc2c(ccc3ccccc32)s1)c1cccs1	.	0	-0.3	.	-0.3	13%	2.5
Cc1ccc(NS(=O)(=O)c2cc(C(=O)N3CCOCC3)ccc2C)cc1	5.2	-1	0.6	0.71	-6.6	6%	-2.8
COC(=O)c1cc(OC)c(OC)cc1-n1cnc2cc(OC)c(OC)cc2c1=O	2.7	6	0.1	0.68	2.0	-5%	-0.8
CCOc1cc(S(=O)(=O)Nc2ccc(Cl)cn2)ccc1F	0.5	3	0.1	0.76	-3.5	5%	0.4
Cc1nc2[nH]c(=S)n(C)c(=O)c2nc1C	3.0	1	-0.3	0.7	3.1	-3%	2.6
Cn1nc([N+](=O)[O-])nc1N1CCN(c2ccc(F)cc2)CC1	4.0	-1	-0.3	0.69	0.9	11%	-0.5
COc1ccc(NC(=O)CSc2ccc(-c3ccco3)nn2)c(OC)c1	3.6	-10	1.0	0.68	-2.4	.	-3.3
CN(C)c1cccc(C(=O)OCC(=O)Nc2nccs2)c1	-1.9	-2	-1.6	0.72	-1.9	.	-5.2
COc1c(N)c2c(c([N+](=O)[O-])c1OC)C(=O)OC2	1.9	1	.	0.63	.	-1%	2.8
CC(NC(=O)N1CCOCC1)c1ccccc1 (stereo not drawn)	3.7	-4	0.4	0.7	-7.2	.	3.5
Cc1ccc(C2(C)NC(=O)N(CC(=O)Nc3cc(S(=O)(=O)N4CCOCC4)ccc3OC(C)C)C2=O)cc1 (stereo not drawn)	0.8	5	.	0.71	.	.	-0.6
Cc1ccc(C(O)P(=O)(OC(C)C)c2ccc(N(C)C)cc2)cc1 (stereo not drawn)	6.9	-4	0.6	0.66	-0.6	-3%	-4.0
CCn1ncc(Br)c1C(=O)Nc1cc(C(=O)OC)ccc1C(=O)OC	-4.6	9	0.0	0.76	0.2	-20%	5.0
Cc1cc(C)nc(SCC(=O)Nc2cccc(S(=O)(=O)N(C)C)c2)n1	1.5	-6	0.9	0.71	13	?	0.1
O=C(NCCN1CCN(C(=O)Nc2ccccc2)CC1)Nc1ccccc1	-1.4	8	-0.3	0.71	0.7	10%	3.3
CCOC(=O)COc1ccc2c(c1)C(=O)CC(C)(c1cccnc1)O2 (stereo not drawn)	i	13	-0.6	0.76	-3.0	-2%	4.7
CC(C)CC(=O)Nc1nnc(S(=O)(=O)N(C)Cc2ccco2)s1	-2.5	2	-0.8	0.7	2.6	14%	-0.5
O=C1CC(N2CCN(c3ccc(C(=O)c4ccc(F)cc4)cc3)CC2)C(=O)N1 (stereo not drawn)	8.9	1	-2.6	0.76	-9.2	28%	2.1
CCC(C)Sc1cc(-c2nc3ccc(Cl)cn3c2NC2CCCCC2)ccc1OC (stereo not drawn)	-47	8	.	0.76	.	.	2.9&9.2
COC(=O)c1sc(C(=O)OC)c(C(=O)OC)c1C(=O)OC	0.9	-4	0.2	0.62	-0.7	1%	2.7
CSc1ccccc1NC(=O)C1=CC(c2ccc(C)cc2)=NS(=O)(=O)N1C	6.0	-5	0.2	0.68	2.1	.	-3.0
O=C(Nc1ccc(-n2ccnc2P(=O)(O)c2ccccc2)cc1)c1ccccc1Cl	5.2	2	0.4	0.71	-1.6	-1%	-1.0
Cc1ccccc1NC(=O)/C(=C/c1ccccc1)c1ccccc1	-3.9	6	0.6	0.72	2.2	-2%	1.6
COc1cccc(CC2(CO)CCN(Cc3cnc(-c4cccc(C)c4)nc3)CC2)c1	-1.2	-4	0.2	0.69	-4.4	-3%	-0.9
COc1ccc(NC(=S)N2CCC(N(C)CCN3CCOCC3)CC2)cc1	5.2	-4	0.7	0.75	1.0	.	-0.7
Cc1cc(Cl)ccc1OCCCC(=O)Nc1cc(S(=O)(=O)N2CCOCC2)ccc1N1CCOCC1	2.2	-6	.	0.7	.	.	8.5
COc1cc2c3c(c1)C1(C(=O)N3C(C)(C)C=C2C)C(C#N)=C(N)Oc2cc(C)oc(=O)c21 (stereo not drawn)	0.2	0	.	0.75	60*	-5%	-1.4
c1ccc(-c2nc3ccccc3[nH]2)nc1	-4.3	-1	-7.2	0.69	3.9	-1%	2.2
CCOC(=O)C1CCN(CC(=O)Nc2ccc(OC)c(Cl)c2)CC1	2.0	7	0.6	0.68	2.5	6%	-3.5
CCCn1c(SCC(=O)NCCc2ccc(OC)c(OC)c2)nc2c1c(=O)n(C)c(=O)n2C	3.4	-3	0.2	0.7	-5.6	-4%&-4%	3.4
C[C@H](CO)N1C[C@H](C)[C@@H](CN(C)S(=O)(=O)c2ccccc2)Oc2c(NC(=O)NC3CCCCC3)cccc2C1=O	-0.6	-1	2.0	.	-6.4	.	0.1

An excerpt from above, reduced to LANA-H2A inh, A1 inh and Ecoli growth:
SMILES,LANA-H2A inh,A1 inh,Ecoli growth
CCOC(=O)COc1ccc2c(c1)C(=O)CC(C)(c1cccnc1)O2 (stereo not drawn),-3.0,-0.6,0.76
CC(C)CC(=O)Nc1nnc(S(=O)(=O)N(C)Cc2ccco2)s1,2.6,-0.8,0.7
O=C1CC(N2CCN(c3ccc(C(=O)c4ccc(F)cc4)cc3)CC2)C(=O)N1 (stereo not drawn),-9.2,-2.6,0.76

The listing continues.
SMILES	UCH37 inh	Beta2AR agonist	A1 inh	Ecoli growth	LANA-H2A inh	Vif A3G	HNF4A DNA FP
CC1CCN(c2nc(N3CCCCC3)nc(N3CCCCC3)n2)CC1	2.6	-1	1.0	0.67	-2.6	0%	0.3
C=CCn1cc(C(=O)N2CCc3ccccc3C2)c(=O)c2cc(S(=O)(=O)N(CC)CC)ccc21	3.8	6	0.2	0.72	2.8	-10%	-14
O=C(CSc1nc2c(c(=O)n1-c1ccccc1)SCC2)NCC1CCCO1 (stereo not drawn)	5.6	-2	0.7	0.7	2.6	.	-1.0
COC(=O)c1cc(Br)c(N)cc1OC	0.0	1	-0.6	0.68	2.8	.	-2.6
Cc1nc(NCC2CCCO2)c2nnn(Cc3ccccc3Cl)c2n1 (stereo not drawn)	1.5	-16	-0.1	0.68	5.9	-1%	-2.5
Cn1cccc1CC(=O)N/N=C\c1c2ccccc2cc2ccccc12	.	9	-0.1	.	1.9	8%	9.1
CC(=O)Nc1ccccc1NS(=O)(=O)c1cccc([N+](=O)[O-])c1	4.3	2	0.8	0.65	-1.5	4%	-1.6
Cc1ccc(-c2c[n+](CC(=O)Nc3ccccc3C)c3n2CCC3)cc1	3.7	13	0.0	0.63	-1.8	-3%	0.5
O=C(Nc1cc(C(F)(F)F)ccc1N1CCOCC1)c1cccnc1	-0.3	0	0.7	0.71	1.0	4%	-2.8
O=C(Nc1ccccc1NC(=O)c1ccco1)c1ccccc1	2.3	-1	0.4	0.6	-2.2	-1%	4.3
COc1ccc2[nH]c(=O)c(COC(=O)c3ccco3)cc2c1	-5.8	5	0.6	0.76	1.6	?	-0.6
Cc1cccn2c(NCc3ccc4c(c3)OCO4)c(-c3ccc(O)cc3)nc12	-337	-15	0.5	0.66	1.0	5%	2.7
O=C(C[n+]1ccccc1)N/N=C/c1ccco1	.	6	0.1	.	6.1	9%	-0.5
COc1nc(N/N=C/c2ccccc2F)nc(N2CCCCC2)n1	.	-8	-0.2	.	-0.4	4%	-2.4
COc1ccc(NS(=O)(=O)c2cccs2)cn1	0.5	2	-0.4	0.69	3.3	3%	3.5
O=C(COc1ccc2ccccc2c1)Nc1cccc(C(=O)Nc2ccccc2C(=O)O)c1	5.0	3	-0.5	0.64	-3.3	21%	-0.2
CCC1(CC)NC(=O)N(CC(=O)N2CCc3ccccc32)C1=O	2.8	-2	0.9	0.72	-0.3	-7%	4.3
CN(C)S(=O)(=O)c1ccc(Oc2ccccc2)cc1	2.5	-7	0.6	0.65	2.2	-2%	0.9
CSc1ccccc1NC(=O)CN(C)CC(=O)Nc1c(F)cccc1F	0.5	-1	0.4	0.65	5.8	-9%	-2.6
COc1ccc(S(=O)(=O)N2CCOCC2)cc1NC(=O)CCc1nc2ccccc2c(=O)[nH]1	1.7	7	-1.8	0.67	-6.9	6%	-0.3
Cc1ccccc1S(=O)(=O)Cc1ccc(C(=O)NCc2ccc(F)cc2)o1	2.3	-4	0.6	0.7	1.8	-9%	1.3
COc1ccc(S(=O)(=O)n2c(C)nc3ccccc32)cc1C	3.3	18	0.5	0.69	-0.2	.	1.2
Cc1ccc(-n2c(=S)[nH]c3c(oc4ccccc43)c2=O)cc1	10	1	-0.5	0.63	-1.2	.	1.1
O=C1C(CN2CCCC2)CCCC1CN1CCCC1 (stereo not drawn)	.	-9	.	.	.	1%	-1.2
Cc1ccc(/C=N/Nc2cccc(C(=O)O)c2)s1	.	-2	-8.4	.	2.1	9%	0.8
CCOC(=O)CSc1ccc2nnc(CCNS(=O)(=O)c3ccc(C)cc3)n2n1	4.7	-6	0.5	0.69	0.8	-1%	-0.3
CCOC(=O)Cn1nc(C)cc1NC(=O)c1cccnc1	1.4	5	0.5	0.68	0.8	8%	1.7
C/C=N/NC(=O)CCNC(=O)c1ccccc1	.	5	0.2	.	-7.9	-7%	-0.6
COC/C=C/C1=CC2=CC(=O)C(C)(OC(=O)c3cnc4ccccc4n3)C(=O)C2=CN1C1CC1 (stereo not drawn)	47*	5	1.2	.	10	.	-0.1
Cc1ccc(Nc2c(F)c(F)c(F)c(F)c2C(=O)O)cc1	0.0	3	0.3	0.72	2.6	7%	-2.7
COc1cc(-c2ccc3sc(-c4ccsc4)c(C#CCO)c3c2)cc(OC)c1OC	-11	13	0.6	0.71	-3.0	.	0.1
COc1ccc(CC(=O)N(C)C2CCCCC2)cc1S(=O)(=O)N1CCOCC1	-1.9	1	-0.1	0.67	-4.9	1%	-3.5
COC(=O)[C@H](C)NC(=O)Nc1ccc(OC)cc1OC	1.4	-8	0.0	.	-6.0	7%	-2.0
CC(=O)c1c(N2CCOCC2)nc(=S)n(-c2ccc([N+](=O)[O-])cc2)c1C	-0.7	1	-0.1	0.76	2.6	-1%	-2.5
